# STAT3 SMM: binds human STAT3 on microarray | Small molecule microarray, His-STAT3 binding, anti-His fluorescence | calls only | 17,000 compounds, 0.2% hits;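 active means compounds whose four printed spots each show fluorescence over background unusually high for their array block, chance value under 7%; compounds were printed on slides so no solution concentration is given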;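 further: about 2 pmol printed per array spot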
# Target sequence (P40763 whole entry, looked up): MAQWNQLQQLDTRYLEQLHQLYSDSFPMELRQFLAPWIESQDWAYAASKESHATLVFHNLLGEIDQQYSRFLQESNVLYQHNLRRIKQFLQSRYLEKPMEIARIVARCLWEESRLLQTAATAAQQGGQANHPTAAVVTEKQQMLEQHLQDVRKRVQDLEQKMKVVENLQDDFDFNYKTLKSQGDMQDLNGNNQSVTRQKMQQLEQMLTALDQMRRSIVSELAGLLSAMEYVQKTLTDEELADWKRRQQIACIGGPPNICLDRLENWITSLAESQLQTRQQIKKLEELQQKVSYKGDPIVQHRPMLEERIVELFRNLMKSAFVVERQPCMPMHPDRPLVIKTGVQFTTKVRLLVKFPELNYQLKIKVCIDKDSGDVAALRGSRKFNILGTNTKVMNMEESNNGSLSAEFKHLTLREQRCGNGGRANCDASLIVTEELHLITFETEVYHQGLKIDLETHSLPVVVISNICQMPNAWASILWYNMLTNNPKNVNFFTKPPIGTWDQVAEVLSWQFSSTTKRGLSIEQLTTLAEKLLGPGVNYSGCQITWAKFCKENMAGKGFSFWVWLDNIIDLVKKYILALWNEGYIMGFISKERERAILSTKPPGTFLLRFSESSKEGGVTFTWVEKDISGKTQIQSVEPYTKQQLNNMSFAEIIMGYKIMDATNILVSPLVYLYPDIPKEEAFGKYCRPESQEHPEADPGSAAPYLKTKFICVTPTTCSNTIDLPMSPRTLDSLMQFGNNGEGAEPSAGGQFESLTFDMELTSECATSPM
# ID4 binder: binds human ID4 protein on microarray. P47928. small molecule microarray, Flag-ID4 binding, fluorescence F/B. AID 624137. 31,000 compounds, 1.2% hits. calls only;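 active means spot signal over background at p below 0.07 in all four prints; compounds were printed on slides so no solution concentration is given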;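 further: a binder raises fluorescence above local background on the spot; about 2 pmol printed per array spot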
# Target sequence (P47928 whole entry, looked up): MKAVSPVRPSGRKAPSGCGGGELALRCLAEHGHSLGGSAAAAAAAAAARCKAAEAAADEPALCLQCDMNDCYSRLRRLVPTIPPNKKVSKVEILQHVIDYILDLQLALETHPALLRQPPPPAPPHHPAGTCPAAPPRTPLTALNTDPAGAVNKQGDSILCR
# c-Myc SMM: binders of human c-Myc | small molecule microarray, His-c-Myc binding, anti-His fluorescence | P01106 | calls only | 17,000 compounds, 1.5% hits;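 active means spot fluorescence over background with P-value below 7% in all four replicate spots, showing protein binding; compounds were printed on slides so no solution concentration is given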;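 further: score is binary with 100 for all four spots passing and 0 otherwise; about 2 pmol printed per array spot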
# mut p53 SMM: mutant p53 (human) binding; small molecule microarray binding, anti-GST fluorescence; calls only; 17,000 compounds, 0.4% hits; AID 624136;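 active means compounds whose four printed spots each glow above background more than chance allows, each with a p-value under 7%; compounds were printed on slides so no solution concentration is given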;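 further: about 2 pmol printed per array spot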
# Calls only; i = inactive; nt = not tested or not shown; + = active, no number.
# Every second line gives: STAT3 SMM	ID4 binder	c-Myc SMM	mut p53 SMM
C[C@H](CO)N1C[C@H](C)[C@H](CN(C)Cc2ccccc2)Oc2ccc(NS(=O)(=O)c3cn(C)cn3)cc2C1=O
 : i	i	i	i
Cc1ccc(-c2nc(SCC(=O)c3ccccc3)n[nH]2)cc1
 : i	i	i	i
COc1ccc(OC)c(NC(=O)C2=C(C)NC(=O)NC2c2ccc(OC)cc2OC)c1 (stereo unspecified)
 : i	i	i	i
C[C@@H]1CN([C@H](C)CO)C(=O)c2cc(NC(=O)CCCN(C)C)ccc2O[C@@H](C)CCCCO[C@@H]1CN(C)Cc1ccccc1
 : i	i	i	i
COC(=O)/C=C/c1cccc(N(Cc2ccc(-c3ccc(N(C)C)cc3)cc2)C(=O)C2CCCCC2)c1
 : i	i	i	i
CNC[C@@H]1Oc2ccc(NS(=O)(=O)c3cccs3)cc2CC(=O)N([C@H](C)CO)C[C@H]1C
 : i	+	i	i
C[C@H](CO)N1C[C@H](C)[C@@H](CN(C)Cc2ccc(Oc3ccccc3)cc2)Oc2c(NC(=O)Nc3ccc(F)cc3)cccc2C1=O
 : i	nt	i	i
C[C@H]1CN([C@@H](C)CO)C(=O)CCCn2cc(nn2)CO[C@H]1CN(C)C(=O)Nc1cccc2ccccc12
 : i	i	i	i
C[C@H](CO)N1C[C@H](C)[C@@H](CN(C)C(=O)Cc2ccccc2)OCCCC[C@H](C)Oc2ccc(NC(=O)c3ccncc3)cc2C1=O
 : i	i	i	i
C[C@H]1CN([C@@H](C)CO)C(=O)c2cccc(NC(=O)c3ccncc3)c2O[C@H]1CN(C)Cc1ccc2c(c1)OCO2
 : i	i	i	i
C[C@H](CO)N1C[C@H](C)[C@H](CN(C)S(=O)(=O)c2cccs2)Oc2ncccc2C1=O
 : i	i	i	i
CCOC(=O)c1ccccc1NC(=O)C(C)Oc1cc(C)c(Cl)c(C)c1 (stereo unspecified)
 : i	i	i	i
C[C@H]1CCCCO[C@H](CN(C)S(=O)(=O)c2cccs2)[C@@H](C)CN([C@@H](C)CO)C(=O)c2cc(NS(=O)(=O)c3cccs3)ccc2O1
 : i	i	i	i
C[C@@H]1CN([C@@H](C)CO)C(=O)c2cccc(NC(=O)c3ccncc3)c2O[C@@H]1CN(C)Cc1ccc(Oc2ccccc2)cc1
 : i	i	i	i
COc1cc(CC2COC(=O)C2(O)Cc2ccc(O)c(OC)c2)ccc1O (stereo unspecified)
 : i	nt	i	i
Cc1ccc(-c2csc3nnc(SCC(=O)Nc4ccc(Cl)cc4)n23)cc1
 : i	i	i	i
COc1ccc(S(=O)(=O)N2CCOCC2)cc1C(=O)NCCN1CCOCC1
 : i	i	i	i
O=C(COc1ccc(S(=O)(=O)N2CCCCC2)cc1)Nc1ccc2c(c1)OCCO2
 : i	i	i	i
C=C[C@@H](C)[C@@H](OC(=O)Nc1ccc(OC)cc1)c1ccc(OCCO)cc1
 : i	nt	i	i
CCOc1ccccc1NC(=O)C(C)Oc1ccc(OC)cc1 (stereo unspecified)
 : i	i	i	i

# One compound at a time (already shown):
# Results for `C[C@H](CO)N1C[C@H](C)[C@H](CN(C)S(=O)(=O)c2cccs2)Oc2ncccc2C1=O` = STAT3 SMM = i; ID4 binder = i; c-Myc SMM = i; mut p53 SMM = i
# Results for `Cc1ccc(-c2csc3nnc(SCC(=O)Nc4ccc(Cl)cc4)n23)cc1` = STAT3 SMM = i; ID4 binder = i; c-Myc SMM = i; mut p53 SMM = i

# More results.
# Every second line gives: STAT3 SMM	ID4 binder	c-Myc SMM	mut p53 SMM
Cn1c(SCC(=O)c2ccc(Cl)cc2)nnc1-c1ccncc1
 : i	i	i	i
C[C@H](CO)N1C[C@H](C)[C@@H](CN(C)S(=O)(=O)c2cn(C)cn2)OCCCC[C@H](C)Oc2ccc(NS(=O)(=O)c3cn(C)cn3)cc2C1=O
 : i	i	i	i
C[C@@H]1CCCCO[C@@H](CN(C)S(=O)(=O)c2cccs2)[C@@H](C)CN([C@H](C)CO)C(=O)c2cc(N(C)C)ccc2O1
 : i	i	i	i
Cc1ccccc1-n1c(SCC(N)=O)nc2ccccc2c1=O
 : i	i	i	i
C[C@@H]1CCCCO[C@@H](CN(C)C(=O)C2CCCCC2)[C@H](C)CN([C@@H](C)CO)C(=O)c2cc(N(C)C)ccc2O1
 : i	i	i	i
C[C@@H]1CCCCO[C@H](CN(C)C(=O)CCC(F)(F)F)[C@@H](C)CN([C@H](C)CO)C(=O)c2cc(NC(=O)Cc3ccccc3)ccc2O1
 : i	i	i	i
CC(C)NC(=O)N(C)C[C@@H]1OCCCC[C@@H](C)Oc2ccc(NC(=O)Nc3ccc(F)cc3)cc2C(=O)N([C@H](C)CO)C[C@H]1C
 : i	i	i	i
O=[N+]([O-])c1ccccc1/C=C/CN1CCC(O)CC1
 : i	+	i	i
C[C@H]1CN([C@@H](C)CO)C(=O)c2cc(NC(=O)Cc3ccccc3)ccc2O[C@H]1CN(C)C(=O)Nc1ccccc1
 : i	i	i	i
C[C@H](CO)N1C[C@H](C)[C@H](CN(C)S(=O)(=O)c2cn(C)cn2)Oc2ccc(NC(=O)Nc3ccc(F)cc3)cc2C1=O
 : i	i	i	i
C[C@H]1CN([C@@H](C)CO)C(=O)c2cc(NS(=O)(=O)c3cccs3)ccc2O[C@H]1CN(C)CC1CC1
 : i	i	i	i
C[C@H]1CN([C@@H](C)CO)C(=O)Cc2cc(N(C)C)ccc2O[C@H]1CN(C)C(=O)Nc1ccccc1
 : i	i	i	i
Cc1noc(C)c1S(=O)(=O)N(C)C[C@H]1Oc2c(NS(C)(=O)=O)cccc2C(=O)N([C@@H](C)CO)C[C@H]1C
 : i	i	i	i
C[C@H](CO)N1C[C@H](C)[C@@H](CN(C)S(=O)(=O)c2ccccc2)Oc2ccc(NC(=O)Cc3ccccc3)cc2CC1=O
 : i	nt	i	i
Cc1noc(C)c1NC(=O)N(C)C[C@H]1Oc2c(NS(C)(=O)=O)cccc2C(=O)N([C@H](C)CO)C[C@@H]1C
 : i	i	i	i
O=C(O)c1cccc(NCc2cccnc2)c1
 : i	i	i	i
O=C1C(=O)N(CCn2c3ccccc3c3nc4ccccc4nc32)c2ccccc21
 : i	i	i	i
C[C@H](CO)N1C[C@H](C)[C@@H](CN(C)C(=O)Nc2cccc3ccccc23)Oc2ccc(NC(=O)CCN3CCOCC3)cc2C1=O
 : i	i	i	i
C[C@@H]1CN([C@@H](C)CO)C(=O)Cc2cc(NC(=O)Nc3ccc4c(c3)OCO4)ccc2O[C@@H]1CN(C)CC1CC1
 : i	i	i	i
CNC[C@H]1Oc2ccc(NC(=O)Nc3ccc(F)cc3)cc2CC(=O)N([C@@H](C)CO)C[C@H]1C
 : i	i	i	i
C[C@@H]1CN([C@H](C)CO)C(=O)Cc2cc(NS(=O)(=O)c3ccccc3)ccc2O[C@@H]1CN(C)C(=O)NC1CCCCC1
 : i	i	i	i
C[C@@H]1CCCCO[C@H](CN(C)Cc2ccccc2)[C@@H](C)CN([C@H](C)CO)C(=O)c2cc(N(C)C)ccc2O1
 : i	i	i	i
COc1ccc(S(=O)(=O)N2CCN(Cc3cccc(OCCO)c3)CC2)cc1
 : i	nt	i	i
C[C@H](CO)N1C[C@H](C)[C@H](CN(C)Cc2ccc(Cl)c(Cl)c2)Oc2c(NC(=O)c3ccncc3)cccc2C1=O
 : i	i	i	i
C[C@@H]1CN([C@@H](C)CO)C(=O)c2cc(NC(=O)Nc3cccc4ccccc34)ccc2O[C@@H](C)CCCCO[C@H]1CN(C)Cc1ccccc1
 : i	nt	i	i
CC(C)(C)NC(=O)[C@H]1CC[C@H]2[C@@H]3CC[C@H]4NC(=O)C=C[C@]4(C)[C@H]3CC[C@]12C
 : i	i	i	i
C[C@@H]1CN([C@H](C)CO)C(=O)c2cccc(NC(=O)NC3CCCCC3)c2O[C@@H]1CN(C)C(=O)Nc1ccc(F)cc1
 : i	i	i	i
COc1ccc2c(c1OC)CN(C)CCc1cc3c(cc1C(=O)C2)OCO3
 : i	i	i	i
COc1ccccc1OCCCSc1nc(-c2ccccc2)cc(=O)[nH]1
 : i	i	i	i
O=C(NC1CC1)C1=C[C@H](c2coc3ccccc3c2=O)C[C@H](OCc2ccc(CO)cc2)O1
 : i	i	i	i
Cc1nn(C)c2nc(NNC(=O)Nc3cc(Cl)nc(Cl)c3)cc(C(C)C)c12
 : i	i	i	i
CCc1ccc2c(-c3cccc(Cl)c3)nc(=O)n(CC)c2n1
 : i	i	i	i
C[C@@H]1CCCCO[C@@H](CN(C)C)[C@@H](C)CN([C@@H](C)CO)C(=O)c2cc(NC(=O)C3CCCCC3)ccc2O1
 : i	i	i	i
O=C(O)c1ccc(CNC(=O)c2cccnc2C(=O)O)cc1
 : i	i	i	i
COc1cc(O)c2c(=O)c(OC)c(-c3ccc(OC)c(OC)c3)oc2c1
 : i	i	i	i
COc1ccc(NC(=O)CSc2nnc3sc4ccccc4n23)cc1
 : i	i	i	i
Cc1c(CC(=O)O)c(=O)oc2c(C)c(OCC(=O)O)ccc12
 : i	i	i	i
Cc1noc(C)c1NC(=O)N(C)C[C@H]1Oc2c(NC(=O)c3cnccn3)cccc2C(=O)N([C@H](C)CO)C[C@H]1C
 : i	i	i	i
COc1ccc(S(=O)(=O)Nc2ccc3c(c2)CC(=O)N([C@H](C)CO)C[C@H](C)[C@@H](CN(C)C)O3)cc1
 : i	i	i	i
Cc1nnc(SCC(=O)N2CCC(c3noc4ccc(F)cc34)CC2)s1
 : i	i	i	i
CCOc1ccc(NC(=O)c2ccc(NS(=O)(=O)c3cccc4cccnc34)cc2)cc1
 : i	i	i	i
COc1ncnc(NS(=O)(=O)c2ccc(N)cc2)c1OC
 : i	i	i	i
C[C@@H]1CN([C@H](C)CO)C(=O)c2cc(NC(=O)CCCN(C)C)ccc2O[C@H]1CN(C)C(=O)Nc1ccccc1
 : i	i	i	i
CCN(CC)C(=O)c1sc(NC(=S)Nc2ccc(Br)cn2)c(C(=O)OC)c1C
 : i	i	i	i
C[C@@H]1CN([C@H](C)CO)C(=O)c2cccc(NC(=O)C3CCOCC3)c2O[C@@H]1CN(C)Cc1ccc2c(c1)OCO2
 : i	i	i	i
O=C(O)CCC/C=C/CC1COC(C(F)(F)F)OC1c1ccccc1O (stereo unspecified)
 : i	i	i	i
COC(=O)C1=CO[C@@H](O[C@@H]2O[C@H](CO)[C@@H](O)[C@H](O)[C@H]2O)[C@@H]2[C@@H](C)[C@@H](OC(=O)C3=CO[C@@H](O[C@@H]4O[C@H](CO)[C@@H](O)[C@H](O)[C@H]4O)[C@@H]4[C@@H](C)[C@@H](OC(C)=O)C[C@H]34)C[C@H]12
 : i	nt	i	i
COc1cc(S(=O)(=O)NCCc2ccccc2)c(OC)cc1Br
 : i	i	i	i
C[C@H]1CN([C@@H](C)CO)C(=O)c2cc(NC(=O)Nc3ccc4c(c3)OCO4)ccc2O[C@H]1CN(C)C(=O)NC1CCCCC1
 : i	i	i	i
C[C@@H]1CN([C@@H](C)CO)C(=O)Cc2cc(NC(=O)Nc3cccc4ccccc34)ccc2O[C@H]1CN(C)Cc1ccc(-c2ccccc2)cc1
 : i	nt	i	i
CC(C)NC(=O)N(C)C[C@H]1OCCCC[C@@H](C)Oc2ccc(NC(=O)c3ccncc3)cc2C(=O)N([C@H](C)CO)C[C@@H]1C
 : i	i	i	i
C[C@H](CO)N1C[C@H](C)[C@H](CN(C)S(=O)(=O)c2cn(C)cn2)Oc2ncc(Br)cc2C1=O
 : i	i	i	i
CCO[C@@H]1OC(C(=O)N2CCN(C)CC2)=C[C@H](c2ccccc2)[C@H]1CCCO
 : i	i	i	i
C[C@@H]1CCCCO[C@@H](CN(C)C(=O)CCC(F)(F)F)[C@@H](C)CN([C@H](C)CO)C(=O)c2cc(NC(=O)Nc3ccc4c(c3)OCO4)ccc2O1
 : i	i	i	i
C[C@@H]1CN([C@@H](C)CO)C(=O)Cc2cc(NC(=O)Cc3ccccc3)ccc2O[C@H]1CN(C)Cc1ccncc1
 : i	i	i	i
CC(C)(C)NC(=O)C(COCc1ccccc1)OC(=O)c1ccccc1 (stereo unspecified)
 : i	i	i	i
C[C@@H]1CN([C@@H](C)CO)C(=O)c2cc(NC(=O)NC3CCCCC3)ccc2O[C@H]1CN(C)C(=O)Nc1ccc2c(c1)OCO2
 : i	i	i	i
Cc1noc(C)c1NC(=O)Nc1cccc2c1O[C@@H](CN(C)C(=O)Nc1cccc3ccccc13)[C@H](C)CN([C@@H](C)CO)C2=O
 : i	nt	i	i
CC1CCN=C(N)S1 (stereo unspecified)
 : i	i	i	i
CN1CCN(Cc2nc(N)nc(Nc3ccccc3)n2)CC1
 : i	i	i	i
C[C@H]1CN([C@@H](C)CO)C(=O)c2cccc(NC(=O)c3nc4ccccc4s3)c2O[C@@H]1CN(C)S(=O)(=O)c1ccc(F)cc1
 : i	nt	i	i
C[C@@H]1CN([C@@H](C)CO)C(=O)c2cccc(NC(=O)c3ccncc3)c2O[C@@H]1CN(C)CC1CC1
 : i	i	i	i
COc1ccc(S(=O)(=O)Nc2cccc3c2O[C@@H](CN(C)CC2CC2)[C@H](C)CN([C@H](C)CO)C3=O)cc1
 : i	i	i	i

# This is a subset; count on the stated rates, not on these rows.
